Tgondii IFNg – inhibitors of Toxoplasma gondii growth with IFN-gamma; Toxoplasma gondii growth in IFN-gamma-treated host cells; active compounds read low; reference of the scale not given here; activity change, negative = inhibition, %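 (about 20 µM by stock and volumes)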; hit rate 3.8% among 69,000; AID 1259416;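 active means below -70%; inconclusive means fit judged invalid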;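 further: host cells are HeLa cells infected with Toxoplasma gondii; parasite growth read as luciferase light; one replicate is shown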
* = called active by the depositor; i = inactive; u = inconclusive; & = joins results of further samples.

SMILES	Tgondii IFNg
CN(C)C(=O)c1ccc(-c2ccc([C@H]3[C@H](C#N)N(C(=O)C4CC4)[C@H]3CO)cc2)cc1	45.1
O=C(CCC1Nc2c3ccccc3nc(=S)n2C1=O)N1CCN(c2ccc(F)cc2)CC1 (stereo not given)	13.8
Cc1oc(-c2ccccc2)nc1CN(c1ccccc1)S(=O)(=O)c1ccccc1	-54.3
O=c1cc(CN2CCN(CCn3cncn3)CC2)c2cccc3c2n1CCC3	-7.5
C[C@H]1CN([C@@H](C)CO)C(=O)CCCn2nncc2CO[C@@H]1CN(C)C(=O)Nc1ccc(-c2cccs2)cc1	i
Cc1nc(N)nc(C)c1CC(=O)N1CCCC(Nc2ccccc2)C1 (stereo not given)	-0.1
CCCc1cc2c(cc1NC(=O)c1cnc(N3CCCC(C)C3)nc1)OCO2 (stereo not given)	-17.5
O=C(C[C@@H]1CC[C@@H]2[C@H](COC[C@@H](O)CN2C(=O)c2cnccn2)O1)NCc1ccc(Cl)cc1	10.7
COc1ccc(F)cc1S(=O)(=O)NC1CC(C)(C)NC(C)(C)C1	25.3
O=C(CC1CC1)N1CC[C@H]2[C@H](CO)Nc3ccc(-c4ccc(F)cc4)cc3[C@H]21	-21.1
CO[C@@H]1CC[C@H]2CCN(C)C(=O)[C@@H](C)N(C)C(=O)c3cccc(C#N)c3OC[C@H]1O2	-46.4
Cc1nnc([C@@H]2CC[C@H]3[C@H](CCN3Cc3ccc(C)s3)O2)o1	-39.7
CCCCCOCC1Cc2c(C)nn(C(N)=S)c2O1 (stereo not given)	-38.9
COC(=O)Nc1ccc(S(=O)(=O)C(F)(F)F)cc1	18.4
CC1(C)Cc2ccccc2/C(=C/C(=S)Nc2ccccc2)N1	-13.6
COc1ccccc1-c1nc(Cn2nnc(-c3nc(-c4ccncc4)no3)c2C)c(C)o1	-35.4
COc1ccc(Cn2nc(C(=O)NC3CCCC3)c3c2CCN(C(=O)c2cscn2)C3)cc1	1.7
COc1ccc(NC(=O)N(C)C[C@H]2Oc3c(NC(=O)CCCCCC(=O)Nc4ccccc4N)cccc3C(=O)N([C@@H](C)CO)C[C@H]2C)cc1	11.1
COC(=O)[C@@H](NC1CCN(c2ccc(NC(=O)Cc3cccc(F)c3)cc2)CC1)C(C)C	20.7
Cn1cnc2cc(C(=O)NCc3cccnc3Oc3ccccc3F)cnc21	-7.6
COc1ccc(C(=O)c2sc(=S)n(-c3ccccc3)c2N)cc1	325.3
CCc1ccc(NC(=O)c2nc(Nc3ccc(C)cc3)c3ccccc3n2)cc1	79.4
Cc1cc(C(=O)N2CCc3ncnc(N4CCOCC4)c3CC2)c(C)o1	0.1
O=C(NC1CC1)c1ccc(-c2csc(C3CC3)n2)cc1	108.5
CSc1nsc(NC(=O)OCc2ccc(Cl)cc2)n1	12.3
SMILES	Tgondii IFNg
O=c1cc(-c2ccccc2)oc2cc(OCc3ccccc3)cc(O)c12	24.4
CN1[C@@H]2c3ccc(-c4ccccc4F)c(=O)n3C[C@@H]2[C@@H](CO)[C@@H]1C(=O)Nc1nccs1	4.8
CO[C@H]1CN(C)C(=O)c2cc(NC(C)=O)ccc2OC[C@@H](C)N(S(C)(=O)=O)C[C@@H]1C	-44.4
CC(Cn1cnc2ccccc21)C(=O)N1CCN(Cc2ccccn2)CC1 (stereo not given)	14.7
Cc1ccc(OC(=O)N(C)C[C@H]2OCc3ccccc3-c3ccccc3C(=O)N([C@H](C)CO)C[C@H]2C)cc1	-13.2
O=c1c(-c2ccc(O)cc2)coc2cc(O)cc(O)c12	80.2&18.9
O=C(NCc1ccco1)c1cc(N2CCNC(c3ccccc3)C2)ccn1 (stereo not given)	-6.8
CCc1ccc(-c2cn3cc(C(=O)N4CCCN(C)CC4)ccc3n2)cc1	173.3
COc1ccccc1-c1nc(Cc2noc(-c3ccccc3)n2)c(C)o1	116.4
CCc1ccc2c(c1)cc(S(=O)(=O)c1ccccc1)c(=O)n2CC(=O)NC1CCCCC1	-19.6
N#C[C@H]1[C@@H](c2ccccc2-c2ccc(F)cc2)[C@H](CO)N1C(=O)Cc1cccnc1	-44.6
NC(=S)Nc1ccc(OC(F)(F)F)cc1	37.5
O=C(CN1CCOCC1)N[C@H]1CC[C@@H](CCn2cc(C3CC3)nn2)O[C@@H]1CO	-32.1
CCc1noc(-c2cc(=O)n(CC(=O)Nc3ccccc3)c3ccccc23)n1	-45.4
CC(C)CC(=O)N1CCC(C(=O)NCCc2csc(-c3cccs3)n2)CC1	-8.3
Nc1ccc(-n2nncc2-c2ccccc2)cc1	18.0
Cc1cc(C)c2oc(=O)cc(CN(Cc3ccccn3)CC3CCCO3)c2c1 (stereo not given)	-8.1
CN(C)CCO[C@H]1CN(C(=O)NCc2ccccc2)[C@H]2COC[C@@H]12	-0.9
CCCc1cn(CC2CCN(C(=O)c3cnn(CCC)c3C)CC2)nn1	11.6
C=C(C)C[C@H]1CCn2nncc2COCCNC1=O	-30.0
CCOc1ccc(-c2nc(CN3CCN(C(=O)Nc4ccc(CC)cc4)CC3)c(C)o2)cc1	2.0
Cc1cc(C(=O)NCCN2CCCC(C)C2)n[nH]1 (stereo not given)	-48.8
N#Cc1ccccc1NC(=O)C(=O)NCCc1csc(-c2cccc(F)c2)n1	-7.0
C=CCN(CCC)C(=O)c1c(O)cccc1O	-3.8
CC1(C(=O)Nc2cccc(Cl)c2)Cc2ccccc2C(=O)O1 (stereo not given)	12.8
SMILES	Tgondii IFNg
CC(C)c1nc(CN(C)C(=O)CCc2cn3ccccc3n2)cs1	-34.9
CCOC(=O)c1nc(Nc2ccc(F)cc2Cl)c2ccccc2n1	43.8
CCn1c(CC2CCN(S(=O)(=O)N3CCCCC3)CC2)nn(C)c1=O	-0.4
O=c1ccc(-n2ccnc2-c2cccnc2)c[nH]1	-4.6
O=S(=O)(c1ccccc1)N1CCC2(CCCN(CC3CCOCC3)C2)C1 (stereo not given)	-3.1
O=C(CC1CCN(Cc2cccc(C(F)(F)F)c2)CC1)NCc1ncc[nH]1	-4.0
Cc1ccc(-c2coc(-c3ccc(NC(=O)NCCc4ccccc4)cc3)n2)c(C)c1	-39.0
Cc1nccn1CC1CCN(c2ncnc3c2CCNC3)CC1	4.2
CC(C)Cc1ncc2c(n1)CN(C(=O)Cn1c(=O)oc3ccccc31)C2	-2.9
COCC1CC2(CCN(Cc3cnn(C)c3)CC2)CN1Cc1ccccn1 (stereo not given)	3.9
CNC[C@@H]1Oc2cc(C3=CCCC3)ccc2S(=O)(=O)N([C@@H](C)CO)C[C@H]1C	10.7
COc1ccc(-n2cccn2)c(-c2c(-c3ccccc3)ncn2CCCO)c1	-7.3
CC(C)Cc1cc(C(=O)N(C)Cc2n[nH]c3c2CCCC3)n(C)n1	-13.9
CC(C(=O)NCCS(=O)(=O)N(C)C)n1cnc2ccccc21 (stereo not given)	-24.0
C[C@H](CO)N1C[C@H](C)[C@H](CN(C)S(C)(=O)=O)Oc2c(NC(=O)Nc3ccc4c(c3)OCO4)cccc2C1=O	4.1
O=c1c2ccccc2nc(-c2ccco2)n1-c1nc2ccccc2s1	251.9
CC(CN1CCCC1)C(=O)N1Cc2cnc(-c3ccccc3)nc2C1 (stereo not given)	-17.6
O=C(C[C@@H]1CC[C@H]2[C@@H](COC[C@H](O)CN2Cc2ccc(F)cc2)O1)NCCc1ccccc1	-13.4
Cn1ncc2c(Sc3ccc(Cl)cc3)ncnc21	-65.9
COc1ccccc1CN1CCC(C(=O)Nc2nc(-c3nonc3C)cs2)CC1	-23.7
CS(=O)(=O)N1CCC2(CC1)COC(COCc1ccncc1)C2 (stereo not given)	4.5
Cc1cc(NCc2cc(-c3ccccn3)no2)nc(-c2cccnc2)n1	-2.1
Cc1ccc(N2CC3(CCN(C(=O)Nc4ccc(F)cc4)C3)CC2=O)cc1 (stereo not given)	-10.5
O=C(Nc1cccc(-n2cccn2)c1)C1CC(=O)N(Cc2ccccc2)C1 (stereo not given)	3.8
Cc1ncc2c(c1CNC(=O)Cc1cccs1)CCN(C(=O)c1cccc(C(F)(F)F)c1)C2	-0.9

Copied from the entries so far, 15 compounds:
SMILES	Tgondii IFNg
CNC[C@@H]1Oc2cc(C3=CCCC3)ccc2S(=O)(=O)N([C@@H](C)CO)C[C@H]1C	10.7
COc1ccc(-n2cccn2)c(-c2c(-c3ccccc3)ncn2CCCO)c1	-7.3
CC(C)Cc1cc(C(=O)N(C)Cc2n[nH]c3c2CCCC3)n(C)n1	-13.9
CC(C(=O)NCCS(=O)(=O)N(C)C)n1cnc2ccccc21 (stereo not given)	-24.0
C[C@H](CO)N1C[C@H](C)[C@H](CN(C)S(C)(=O)=O)Oc2c(NC(=O)Nc3ccc4c(c3)OCO4)cccc2C1=O	4.1
O=c1c2ccccc2nc(-c2ccco2)n1-c1nc2ccccc2s1	251.9
CC(CN1CCCC1)C(=O)N1Cc2cnc(-c3ccccc3)nc2C1 (stereo not given)	-17.6
O=C(C[C@@H]1CC[C@H]2[C@@H](COC[C@H](O)CN2Cc2ccc(F)cc2)O1)NCCc1ccccc1	-13.4
Cn1ncc2c(Sc3ccc(Cl)cc3)ncnc21	-65.9
COc1ccccc1CN1CCC(C(=O)Nc2nc(-c3nonc3C)cs2)CC1	-23.7
CS(=O)(=O)N1CCC2(CC1)COC(COCc1ccncc1)C2 (stereo not given)	4.5
Cc1cc(NCc2cc(-c3ccccn3)no2)nc(-c2cccnc2)n1	-2.1
Cc1ccc(N2CC3(CCN(C(=O)Nc4ccc(F)cc4)C3)CC2=O)cc1 (stereo not given)	-10.5
O=C(Nc1cccc(-n2cccn2)c1)C1CC(=O)N(Cc2ccccc2)C1 (stereo not given)	3.8
Cc1ncc2c(c1CNC(=O)Cc1cccs1)CCN(C(=O)c1cccc(C(F)(F)F)c1)C2	-0.9

The listing continues:
SMILES	Tgondii IFNg
O=C(C1CCCC1)N1CC2(C1)[C@H](c1ccccc1)[C@H](CO)N2Cc1ccc(Cl)cc1	-56.0
COc1ccc(-c2cccc(CC3C(=O)NCCN3C(=O)Cn3cc(C(C)C)nn3)c2)cc1 (stereo not given)	-45.5
Cn1cnc(S(=O)(=O)N[C@@H]2CC[C@@H](CC(=O)NCC3CCCCC3)O[C@H]2CO)c1	26.7
CCn1c(C2CCN(C(=O)c3ccc(-c4ccn[nH]4)cc3)CC2)nn(C)c1=O	1.1
COc1ccccc1-c1nc(Cn2nnc(-c3nc(-c4cccc(F)c4)no3)c2C)c(C)o1	3.3
COc1ccc(C(=O)N2CCCC(c3oncc3-c3cc(C)no3)C2)cc1 (stereo not given)	-3.5
Cc1ccccc1N(CC(=O)NCCc1ccccc1)C(=O)c1ccc(N2CCCC2)nc1	-16.5
Nc1nc2c3cccc4cccc(c(=O)n2n1)c43	-68.4
O=C(O)CC(CC(=O)Nc1nncs1)c1ccccc1 (stereo not given)	24.3
CNC(=O)CN1CCOc2c(O)cc(-c3ccccc3C)cc2C1	-0.8
CNC(=O)c1ccc(Cn2nc(C3CCNCC3)n(-c3ccccc3)c2=O)o1	2.7
Cc1cccc(NC(=O)c2c(O)c3cccnc3n(-c3cccc(F)c3)c2=O)c1	-33.9
Cc1ccc(S(=O)(=O)NCCc2sc(-c3ccc(F)cc3)nc2C)c(C)c1	-21.9
CCOC(=O)c1c(NC(=O)C2CC(=O)OC23CCCCC3)sc2c1CCCC2 (stereo not given)	u
O=C(COCc1ccccc1)NCc1cnn2ccccc12	-30.1
CCc1ncnc2c1CCN(C(=O)NC1CCCC1)CC2	1.3
O=C(c1cc2cc(Br)ccc2o1)N1CCCCC1	199.9
O=C1CCC(CC(=O)N2Cc3cnn(Cc4ccc(F)cc4)c3C2)N1 (stereo not given)	-1.6
CC(C)c1cc(C2CCCN2C(=O)c2ccc(NC(=O)C3CCC3)cc2)no1 (stereo not given)	-4.7
O=C(Nc1cccc(Cl)c1)OC1CCCCc2cccnc21 (stereo not given)	-27.7
COC(=O)c1scc2c(Sc3nccn3C)cc(C(F)(F)F)nc12	-20.3
C=CCN(C(=O)CCN1CCCCO1)C1CCCC1	-3.1
O=C(Cn1c(=O)c(S(=O)(=O)c2ccccc2)cc2ccccc21)NCc1ccc(F)cc1	-3.6
O=C(Cn1c(=O)oc2cccnc21)Nc1ccccc1Oc1ccc(Cl)cc1Cl	9.4
COc1ccc(-c2nnc(-c3nc(NCc4cc(OC)ccc4OC)c4ccccc4n3)o2)cc1	-55.0
SMILES	Tgondii IFNg
CC(C)c1noc(C2CCCN2C(=O)c2cc(=O)c3ccccc3o2)n1 (stereo not given)	3.5
Cc1nc(N2CCOCC2)nc2c1CCN(C(=O)C1(C#N)CC1)CC2	10.4
COc1ccc(CC(=O)N2CCN(S(=O)(=O)c3cc4c5c(c3)CCN5C(=O)CC4)CC2)cc1OC	22.0
COCc1cc(=O)n2[nH]c(Nc3cc(Cl)ccc3C)nc2n1	11.4
CN(C)C(=O)c1ccc2c(c1)N(C)C(CC(=O)NCCn1cncn1)CO2 (stereo not given)	-0.6
Cc1nnc([C@]23CCO[C@H]2CCN(C(=O)c2ccco2)C3)o1	132.6
COc1ccccc1-c1nc(CN(C)S(=O)(=O)c2ccc(C)cc2C)c(C)o1	-104.4*
CC(=O)Nc1nc(C(=O)NC2(c3ccc(F)cc3)CCCC2)cs1	0.5
Cc1cc(C)n(CCNC(=O)c2cccc(C#CC(C)(C)O)c2)c(=O)n1	-4.9
CCCNC(=O)N(C)C[C@@H]1Oc2cc(C#C[C@H](C)O)ccc2S(=O)(=O)N([C@@H](C)CO)C[C@@H]1C	284.5
CC(Oc1cccc(-c2ccc(C(=O)N(C)C)cc2)c1)C(N)=O (stereo not given)	10.2
COc1ccc(C2(C)NC(=O)N(CC(=O)N3CCc4cc(Cl)ccc43)C2=O)cc1 (stereo not given)	7.7
O=C(N1Cc2cnn(CCO)c2C1)C1(c2ccccc2)CC1	2.5
COc1ccc2ccc(=O)oc2c1CC=C(C)C	11.0
Cc1noc(C2CCCN2Cc2cccc(C(=O)Nc3c(C)noc3C)c2)n1 (stereo not given)	-10.3
Cc1cnc2c(C(=O)N3CCCC(OCc4ccccn4)C3)cnn2c1 (stereo not given)	-24.5
CCCCCCCCc1ccc(-c2ccc(C(=O)O)cc2)cc1	22.7
Fc1ccc(CN2CCC3(CC(Nc4cnccn4)CO3)C2)cc1 (stereo not given)	52.9
CN(C)Cc1cc(=O)n2c(n1)CN(C(=O)c1ccc[nH]1)CCC2	-30.8
COc1ccnc(N2C[C@H]3CC=CC[C@H]3C2)n1	-23.9
CNC(=O)c1cc(=O)n(CC(=O)Nc2cccc(F)c2)c2ccccc12	9.8

Some of the compounds tested; the hit share may differ from the screen's.
